# Assay outcomes from PubChem.
# D2 agonist – activates the human D2 dopamine receptor; P14416; DiscoveRx PathHunter D2 beta-arrestin, luminescence, 90 min; 100% = 57 uM dopamine signal; activation, % (test concentration not listed); 0.084% of 360,000 active; AID 624465; in the data active = activation above about 40%; inconclusive = about 15% to 40%; inactive = below about 15%; further: compound concentration not given in the record; the text of the record calls up to 30% inactive
#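 Agonist mode: compounds alone added to overnight-plated D2 PathHunter cells for 90 min at 37 C, with 57 uM final dopamine (EC100) defining full response. Beta-arrestin recruitment detected by chemiluminescent reagent, read after 1 h at ambient temperature.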
# Six1-Eya2 inh – Six1/Eya2 interaction inhibition. Q15475+O00167. AlphaScreen GST-Six1/His-Eya2 binding, biochemical; hits give low values; control for the full effect not named in the record. activity change, % (concentration not given with the values). 0.56% of 360,000 active; in the data active = activity change below about -65%; inconclusive = about -30% to -65%; inactive = above about -30%; further: on the % scale 0 is the no-effect control and ±100 the full control effect
# Target sequence (O00167 whole entry, looked up): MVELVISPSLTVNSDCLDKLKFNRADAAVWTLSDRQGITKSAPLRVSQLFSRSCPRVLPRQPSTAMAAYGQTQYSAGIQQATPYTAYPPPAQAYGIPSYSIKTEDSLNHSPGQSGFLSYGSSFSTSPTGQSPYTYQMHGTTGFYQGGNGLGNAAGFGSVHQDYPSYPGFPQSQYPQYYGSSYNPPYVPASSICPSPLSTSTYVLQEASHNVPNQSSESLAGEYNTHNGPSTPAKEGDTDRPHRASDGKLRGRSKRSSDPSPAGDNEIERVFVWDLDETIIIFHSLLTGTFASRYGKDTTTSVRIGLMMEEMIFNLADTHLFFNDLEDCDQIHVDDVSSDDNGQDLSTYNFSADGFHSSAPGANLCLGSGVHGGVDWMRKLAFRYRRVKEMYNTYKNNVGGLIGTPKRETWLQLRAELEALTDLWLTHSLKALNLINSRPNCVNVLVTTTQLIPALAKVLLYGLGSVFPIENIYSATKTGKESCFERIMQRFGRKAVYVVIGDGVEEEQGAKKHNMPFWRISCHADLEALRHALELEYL
# Target sequence (Q15475 whole entry, looked up): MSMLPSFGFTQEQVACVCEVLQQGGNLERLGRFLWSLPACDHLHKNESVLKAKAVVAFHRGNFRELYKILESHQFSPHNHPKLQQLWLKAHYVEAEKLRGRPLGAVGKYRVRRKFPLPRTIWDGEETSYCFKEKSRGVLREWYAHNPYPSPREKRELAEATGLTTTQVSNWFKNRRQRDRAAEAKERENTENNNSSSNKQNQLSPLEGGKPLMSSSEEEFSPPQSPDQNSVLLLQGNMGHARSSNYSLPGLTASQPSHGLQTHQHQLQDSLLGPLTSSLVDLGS
#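 AlphaScreen luminescence read after one hour at 37 °C in darkness. Pin-transferred compounds met GST-Six1 and His-Eya2 protein (5X stock 250 nM/500 nM) plus glutathione donor and Ni-chelate acceptor beads (5X, 50 ug/mL).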
# D2 potentiator – human D2 receptor positive allosteric modulation; potentiation, % (concentration not given with the values); AID 624464; DiscoveRx D2 beta-arrestin cells, luminescence, 90 min; 100% = 57 uM dopamine signal; 0.23% of 360,000 active; active = potentiation of 50% or more; inconclusive = 30% to 50%; inactive = 30% or less;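 further: compound concentration not given in the record; tested on top of an EC20 dose of dopamine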
#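 D2 cells co-treated with compound plus 50 nM dopamine (EC20) for 90 min at 37 deg C to detect potentiation. Beta-arrestin recruitment was read as enzyme-fragment luminescence after 1 h at ambient temperature. Full response was set by 57 uM dopamine.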
# gsp ag – agonists of gsp mutant (McCune-Albright syndrome); Potency, µM (doses to about 76.9 µM), for inactives: top-dose activation (cAMP increase), most hits filed as activators; gsp mutant cells, cAMP HTRF, 30 min; control for the full effect not named in the record; 0.13% of 340,000 active; AID 624287; active = well fitted activation curve with a large enough effect; inconclusive = small, poorly fitted or top-dose-only effect, or another doubt; inactive = no such curve, though single readings can be large or run the other way; cell line not stated here;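 further: phosphodiesterase inhibitor Ro 20-1724 added with compounds to block cAMP breakdown; potency means the concentration at half of the fitted maximal effect; nearly all actives have a fitted effect of over 60% in size; about a fifth of the inactives were tested at one dose only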
#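 Cells in DMEM/10% FBS with G418 were pretreated with compounds in DMSO plus […] (300 uM stock) for 30 min at 37C. cAMP was measured by HTRF (cAMP-d2 plus anti-cAMP antibody-K) after 30 min at room temperature.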
# CtBP-E1A inh – blocks the CtBP interaction with E1A. AlphaScreen GST-E1A/His-CtBP binding, 1536-well; hits give low values; control for the full effect not named in the record. activity change, % (no concentration beside the values). 0.49% of 340,000 active. AID 651724; in the data active means activity change below about -65%; inconclusive means about -30% to -65%; inactive means above about -30%; further: on the % scale 0 is the no-effect control and ±100 the full control effect; compound concentration not given in the record
#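 In 5 uL wells, 23 nL compound meets equimolar GST-E1A and His-CtBP (5X stock 125 nM each) for 2 h, 37 °C. Beads (5X, 50 ug/mL) then 1 h, 37 °C, dark.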
# gsp antagonist – gsp mutant antagonism; 0.4% of 340,000 active; Potency, µM (doses to about 76.9 µM), for inactives: at the highest dose activity change, negative = inhibition, actives largely listed as inhibitors; gsp-mutant cells, cAMP HTRF, 30 min; control for the full effect not named in the record; active = falling curve of any shape with a large fitted effect; inconclusive = falling curve, mostly with a smaller effect; inactive = flat or rising curve; cell line not stated here;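 further: intracellular cAMP measured with PDE inhibitor Ro 20-1724 present during compound exposure; potency means the concentration at half of the fitted maximal effect; on the % scale 0 is the no-effect control and ±100 the full control effect; nearly all actives have a fitted effect of over 65% in size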
#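 Measurement of cellular cAMP by homogeneous time-resolved fluorescence following a 30 min compound exposure at 37C. The PDE inhibitor […] was present throughout; the assay buffer was DPBS with 0.05% BSA and 0.005% Tween 20.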
# * marks the source's active call; other numbers are inactive results; ? = inconclusive; . = not tested or not shown; & = joins results of further samples; [ ] = remark or other dose.
SMILES,D2 agonist,Six1-Eya2 inh,D2 potentiator,gsp ag,CtBP-E1A inh,gsp antagonist
O=C(O)c1cccc(Nc2nc(N3CCOCC3)nc(N3CCOCC3)n2)c1,-0.6,1,-12,26%,2,-24%
O=C1CCc2cc(S(=O)(=O)N3CCC(C(=O)NC4CCCc5ccccc54)CC3)ccc2N1 (stereo not drawn),1.1,-7,-1,?,-3,-6%
CC(C)(C)OC(=O)CN1c2cccc3cccc(c23)S1(=O)=O,4.2,12,-7,17%,22,9%
COc1ccc(OC)c(C(=O)c2coc3ccc(O)cc23)c1,-2.4,-8,9,-4%,-10,4%
CN1CCN(C2CC(=O)N(Cc3ccc(N4CCCC4=O)cc3)C2=O)CC1 (stereo not drawn),-2.5,-2,-10,30%,6,2%
Cc1nnsc1NC(=O)OCCCl,-0.5,-2,-7,10%,0,4%
O=C(O)CSCC(=O)NCc1ccccc1,-1.4,5,-5,-24%,-18,11%
COC(=O)C1Cc2ccccc2CN1S(=O)(=O)c1ccc(C)cc1 (stereo not drawn),-0.2,12,-5,0%[15.4 µM],6,2%
CC(=O)c1ccc(OC(=O)c2cccs2)cc1,1.2,?,-5,9%,-3,-1%
O=C(NC1CCC(O)CC1)c1ccc(Br)o1 (stereo not drawn),0.4,4,-25,-1%[15.4 µM],9,11%
O=C(CCCCCNC(=S)Nc1ccc(Cl)cc1)C[N+](=O)[O-],-5.1,-5,-6,-5%[15.4 µM],1,-3%
N#Cc1ccccc1OCC(=O)N1CCc2ccccc2C1,-0.8,-2,-8,10%[15.4 µM],-5,-8%
CCCCN(C(=O)C(C)Oc1ccc(Br)cc1)c1c(N)n(Cc2ccccc2)c(=O)[nH]c1=O (stereo not drawn),-3.7,-15,-30,-4%[15.4 µM],18,-14%
COc1cc(C(=O)Nc2nncs2)cc(OC)c1OC,-2.0,0,8,-1%,-1,10%
CCC(c1nnnn1Cc1ccc2c(c1)OCO2)N1CCN(c2ccccc2)CC1 (stereo not drawn),?,-11,0,1%,-10,-12%
CCCCN(C(=O)NCCCCCCNC(=O)N(CCCC)C1CCS(=O)(=O)C1)C1CCS(=O)(=O)C1 (stereo not drawn),-2.5,1,-8,23%,2,-13%
O=C(Nc1ccc(Cl)c([N+](=O)[O-])c1)C(Sc1ccccc1)c1ccccc1 (stereo not drawn),-3.4,-9,-9,10%[15.4 µM],-1,?
Cc1nc(Nc2ccccc2)sc1C(=O)c1ccc(F)cc1,-3.0,2,-10,16%[15.4 µM],14,9%
CCOC(=O)c1nnn(-c2nc(OC)nc(N3CCCC3)n2)c1-c1ccccc1,-1.6,4,-2,-10%[15.4 µM],4,4%
O=C(CCN1CCOCC1)c1ccc(Br)cc1,-2.7,1,-19,18%[15.4 µM],7,7%
CC(C)CN1C(=O)c2ccc(C(=O)Nc3ccc(OCC(=O)O)cc3)cc2C1=O,-0.9,17,-2,1%[15.4 µM],1,8%
CCn1cc(C(=O)Nc2cccc(C(=O)OC)c2)c(=O)c2ccc(C)nc21,-2.2,4,-4,-20%,11,-8%
COC(=O)c1sc2nc(-c3ccccc3)c3c(c2c1N)CCCC3,-1.3,1,-2,-2%,-6,-12%
COc1cc(NC(=O)COc2ccc(-n3cnnn3)cc2)cc(OC)c1OC,5.9,3,-4,-13%[15.4 µM],-5,-1%
Cc1ccc(OCCC(=O)OCC(=O)Nc2ccccc2)cc1,-5.3,-4,-11,28%,-1,-2%
COc1ccc(NC(=O)N2CCCC2C(=O)NC23CC4CC(CC(C4)C2)C3)cc1 (stereo not drawn),-4.2,10,0,8%[15.4 µM],0,-1%
Cc1ccc(CN2CC(C(=O)Nc3ncccc3C)CC2=O)cc1 (stereo not drawn),-1.6,0,-9,4%,5,9%
CS(=O)(=O)Nc1ccccc1C(=O)c1ccccc1,-6.0,5,-11,-19%,2,-11%
CCC1CCCCN1C(=O)CCNC(=O)Cn1cnc2ccccc2c1=O (stereo not drawn),-2.3,0,-8,18%[15.4 µM],29,-11%
Cc1cc(C)n(C(=O)c2c([N+](=O)[O-])cnn2C)n1,-3.4,22,-3,?,24,9%
S=C(Nc1ccc(Cl)c(Cl)c1)N1CCCC1,-0.9,-16,-3,-9%[15.4 µM],-11,6%
O=C(CCC(=O)N1CCOc2ccccc21)N1CCOCC1,-3.4,6,-5,29%,10,7%
CC(=O)Nc1cc(C)ns1,-1.6,0,-8,1%,36,4%
CCOc1ccc(Cn2nnc(C(=O)NCc3ccccc3)c2N)cc1,-9.4,5,0,-21%,4,3%
COC(=O)Nc1sc2c(c1C(N)=O)CCCCCC2,-1.3,-1,20,?,5,7%
CSCC(=O)N1CCc2ccc(NC(=O)c3ccccc3Cl)cc2C1,-0.8,3,-3,-58%[inhibitor],0,-6%
CCOc1ccc(NC(=O)Cc2ccc(S(=O)(=O)N3CCCCC3)cc2)cc1OCC,-0.1,0,-4,-9%,13,-18%
CN(C)CCNc1c2c(nc3nnnn13)CCCC2,-1.6,8,-6,19%,5,5%
CCN(CC)C(=O)CSc1nc2ccccc2c(=O)n1CC,3.4,8,4,4%,10,-1%
O=c1cc(CSc2ccc(Cl)cc2)nc(-c2ccccn2)[nH]1,-7.0,-93*,-44,-25%,.,-13%
Cc1c(Cl)cccc1NC(=O)CCC(=O)NNC(=O)CCC(=O)O,4.5,0,?,36%,.,10%
CN(C)C(=O)CSC1c2ccccc2C(=O)N1c1ccccc1 (stereo not drawn),0.1,3,5,-11%,5,-4%
CCCc1cc(-c2n[nH]c(=S)n2CC(C)C)cs1,1.4,2,-10,-40%,-1,-4%
Cc1ccc(NC(=O)CC2NCCNC2=O)cc1Cl (stereo not drawn),-8.0,1,-5,-24%,-1,7%
COc1ccc(C(=O)/C=C/Nc2ccc([N+](=O)[O-])cc2)cc1,-0.9,-6,-2,-37%[inhibitor],-2,11%
CC1(c2cccs2)CC(c2cccs2)=C(C#N)C(=O)N1 (stereo not drawn),1.2,?,2,0%,?,6%
O=C(N/N=C/c1ccc(F)cc1)c1cc(-c2ccc3c(c2)OCO3)n[nH]1,2.0,-7,-13,-2%[15.4 µM],-7,-7%
COc1ccc(CNCC(O)(c2ccccc2)c2ccccc2)cc1OC,0.2,0,-11,-5%,0,2%
COCCN(C(=S)Nc1c(C)cc(C)cc1C)C(C)c1cccnc1 (stereo not drawn),-0.4,3,16,-17%,11,-10%
Cc1ccc(C)c(NC(=O)c2sc(Cl)nc2C)c1,-3.9,-4,-1,0%[15.4 µM],18,8%
# Next results.
SMILES,D2 agonist,Six1-Eya2 inh,D2 potentiator,gsp ag,CtBP-E1A inh,gsp antagonist
Cc1cc(C)c2ccc(C(=O)O)nc2c1O,8.9,-24,?,-46%[inhibitor],?,-7%
COc1ccc(-c2nnnn2C)cc1S(=O)(=O)NCc1ccccc1,-3.0,-9,21,-14%,-8,6%
CC(C)OCCCNC(=O)c1cc2c(=O)n(C)c3ccccc3c2n1C,-2.8,-3,-2,?,-1,7%
O=c1c2ccccc2[nH]c(=S)n1CCCN1CCOCC1,-1.7,4,-7,9%,6,6%
Brc1ccc2nc(N3CCN(c4ccccc4)CC3)sc2c1,-3.5,1,-5,-3%[15.4 µM],-1,10%
CCN(CC)C(=O)Nc1ccc(Br)cc1,-4.0,-4,2,15%[15.4 µM],25,-2%
O=C(CC(=O)Nc1ccccc1F)Nc1ccccc1F,0.9,12,-2,3%,3,5%
COc1ccc(-c2cc(C(=O)Nc3cc(OC)cc(C(=O)Nc4cccc(C(F)(F)F)c4)c3)[nH]n2)cc1,3.6&5.0,2&0,1&8,-10%,7&4,-18%
CC(=O)c1ccc(Nc2cnn(C34CC5CC(CC(CC(=O)O)(C5)C3)C4)c(=O)c2Cl)cc1,3.5,-16,-4,-18%[15.4 µM],.,-11%
CC(C)NC(=O)NS(=O)(=O)c1cnccc1NC1CC2CCC1C2 (stereo not drawn),4.1,4,-1,-31%[inhibitor],0,3%

# Some entries already given, showing only D2 agonist:
SMILES	D2 agonist
O=c1c2ccccc2[nH]c(=S)n1CCCN1CCOCC1	-1.7
Brc1ccc2nc(N3CCN(c4ccccc4)CC3)sc2c1	-3.5
CCN(CC)C(=O)Nc1ccc(Br)cc1	-4.0
O=C(CC(=O)Nc1ccccc1F)Nc1ccccc1F	0.9
COc1ccc(-c2cc(C(=O)Nc3cc(OC)cc(C(=O)Nc4cccc(C(F)(F)F)c4)c3)[nH]n2)cc1	3.6&5.0

# The listing continues.
SMILES,D2 agonist,Six1-Eya2 inh,D2 potentiator,gsp ag,CtBP-E1A inh,gsp antagonist
CCOc1cc2[nH]c(=S)n(CCOC)c(=O)c2cc1OCC,-1.2,-2,-12,4.5µM*,1,9%
O=[N+]([O-])c1ccc(Cl)c(S(=O)(=O)NC2=NCCC2)c1,0.8,0,8,8%[15.4 µM],1,-2%
O=C(CNc1ccc2c(c1)OCO2)N/N=C\c1cn(Cc2ccccc2)c2ccccc12,1.2,-30,-8,-5%,5,7%
Cc1nc(SCC(=O)c2ccc(F)c(F)c2)[nH]c(=O)c1Oc1ccc(Cl)cc1,-2.7,-1,-15,-1%,.,-19%
COc1ccc(NC(=O)C[C@@H]2C(=O)N(Cc3ccccc3)CC2(C)C)cc1,-11,6,-1,2%,5,.
CNC(=O)c1ccccc1NC(=O)c1cccc(S(=O)(=O)N2CCCCC2)c1,1.9,0,8,-18%[15.4 µM],4,8%
CCOC1=C2[C@H](c3ccccc3)N(S(=O)(=O)c3ccccc3)C[C@H]2n2c(=O)n(-c3ccccc3)c(=O)n2C1,-5.0,-8,-3,.,-8,.
CCn1cc(C(=O)NC2CCCCCC2)c2cc(OC)c(OC)cc2c1=O,-1.2,1,3,4%,2,7%
O=C(C1CCCO1)N1CCN(C(c2ccccc2)c2ccccc2)CC1 (stereo not drawn),-1.2,1,-11,-5%,41,-10%
CCc1noc(C)c1C(=O)OCC(=O)NCc1ccc(Cl)cc1,-2.5,-7,-3,12%,-12,-3%
COc1ccc(/C=C/C(=O)NC(=S)N2CCN(c3ccccn3)CC2)cc1OC,2.2,-14,-4,-17%[15.4 µM],?,7%
O=C(N1CCN(c2ccccc2F)CC1)C1(c2cccs2)CCOCC1,-7.7,3,-5,11%[15.4 µM],9,-6%
CCn1c(SCC(=O)N2CCN(c3ccccc3)CC2)nnc1-c1cc2cc(Cl)ccc2o1,-1.6,1,-5,10%,-1,14%
NS(=O)(=O)c1ccc(N/C=C\C(=O)c2ccc3ccccc3c2)cc1,3.4,9,4,45%,4,-9%
CCN(CC)C(=O)C1CCCN(Cc2ccc(OC)c(C)c2)C1 (stereo not drawn),-2.9,-8,-3,-1%,-10,8%
O=C(Cc1nc2ccccc2[nH]1)NCc1ccco1,-1.6,-3,-7,3%,-2,10%
Brc1ccc(N=Cc2ccccn2)cc1,0.6,-1,-9,-30%,1,14%
